Vaccinia inh: blocks a specific stage of Vaccinia orthopoxvirus infection; Vaccinia-infected cells, mCherry/Venus stage reporter fluorescence; hits give low values; some inactives read as strong as hits; activity change (mCherry), % (test concentration not listed); 0.01% of 89,000 active; AID 1053133;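 active means mCherry past -33% and 40 or more points under the early reporter, replicates agreeing; inconclusive means past -33% without that gap or agreement; tested in A549 cells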;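 further: scaled between vehicle wells and reference inhibitor wells; 23 nL library stock went into each well; one replicate is shown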
Vaccinia inh Venus: further read-out of Vaccinia inh, marked with its call; activity change (Venus), %; measured here: Venus reporter, other viral stage;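 negative = less Venus signal; first of two replicates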
Starred values were filed as active, the others as inactive; ? = inconclusive; · = no result given. An excerpt; rates above refer to the full screens.

Second line of a record: Vaccinia inh	Vaccinia inh Venus
COC(=O)[C@@H]1[C@@H](CO)[C@@H]2Cn3c(ccc(C4=CCCCC4)c3=O)[C@H]1N2C(=O)CC1CC1
  7.8	2.4
CC(C)(C)[S@@](=O)N1Cc2cc(C(=O)NCCc3ccncc3)nc(-c3cccc(-c4ccc(C#N)cc4)c3)c2[C@H]1CCO
  -5.7	2.4
CO[C@H]1CN(C)C(=O)c2ccc(NS(=O)(=O)c3ccccc3)cc2OC[C@H](C)N(Cc2cccnc2)C[C@H]1C
  2.5	-0.2
COc1ccc(S(=O)(=O)Nc2cccc3c2O[C@@H](CN(C)C(=O)NC2CCCCC2)[C@H](C)CN([C@H](C)CO)C3=O)cc1
  15.7	13.5
CO[C@H]1CN(C)C(=O)c2ccc(NC(=O)C3CC3)cc2OC[C@@H](C)N(C(=O)C2CCOCC2)C[C@H]1C
  4.7	7.8
Cc1ccc(S(=O)(=O)N(C)C[C@H]2Oc3c(NS(=O)(=O)c4c(C)noc4C)cccc3C(=O)N([C@H](C)CO)C[C@H]2C)cc1
  2.3	7.9
CCCN(C)C[C@H]1Oc2cc(C#Cc3ccc(OC)cc3)ccc2S(=O)(=O)N([C@H](C)CO)C[C@H]1C
  -20.1	-13.9
COc1ccc(CN(C)C[C@@H]2Oc3ccc(NC(=O)C4CCCCC4)cc3C(=O)N([C@H](C)CO)C[C@H]2C)cc1
  -3.7	-7.4
COCC(=O)N1C[C@H]2[C@@H](c3ccccc31)[C@H](CO)N2Cc1ccccc1Cl
  -11.2	2.9
C[C@H](CO)N1C[C@H](C)[C@H](CN(C)S(C)(=O)=O)OCCCC[C@H](C)Oc2ccc(NS(=O)(=O)c3ccc(Cl)cc3)cc2C1=O
  -7.5	-9.4
C[C@H]1CN([C@@H](C)CO)C(=O)Cc2cc(NC(=O)C3CC3)ccc2O[C@H]1CN(C)S(=O)(=O)c1ccccc1
  -4.0	11.9
COc1ccccc1C#Cc1ccc2c(c1)O[C@@H](CN(C)C(C)=O)[C@H](C)CN([C@H](C)CO)S2(=O)=O
  -24.9	-23.1
COc1ccc(-c2ccc([C@@H]3[C@H]4CN(C(=O)c5cccnc5)CC(=O)N4[C@H]3CO)cc2)cc1
  -0.8	-5.1
CO[C@H]1CN(C)C(=O)c2cc(NS(=O)(=O)c3cn(C)cn3)ccc2OC[C@@H](C)N(Cc2cccc(F)c2)C[C@@H]1C
  20.2	7.0
Cc1noc(C)c1NC(=O)Nc1ccc2c(c1)C(=O)N([C@H](C)CO)C[C@@H](C)[C@H](CN(C)S(=O)(=O)c1ccc(Cl)cc1)O2
  3.4	9.9
C[C@H]1CCCCO[C@H](CN(C)C(=O)Nc2ccc(F)cc2)[C@@H](C)CN([C@@H](C)CO)C(=O)c2cc(NC(=O)C3CCCCC3)ccc2O1
  -33.2	-18.2
COc1ccc(NC(=O)Nc2ccc3c(c2)C(=O)N([C@@H](C)CO)C[C@@H](C)[C@H](CN(C)C(=O)c2ccccc2)OCCCC[C@H](C)O3)cc1
  10.9	2.2
CO[C@@H]1CN(C)C(=O)c2cc(NS(=O)(=O)c3cn(C)cn3)ccc2OC[C@H](C)N(Cc2cccc(F)c2)C[C@H]1C
  -4.7	-9.8
C[C@@H]1CN([C@H](C)CO)C(=O)c2cc(-c3cccc(C(=O)N(C)C)c3)cnc2O[C@H]1CN(C)S(=O)(=O)c1ccc(F)cc1
  0.4	3.2
Cc1ccc(S(=O)(=O)N(C)C[C@H]2Oc3c(NC(=O)Nc4ccccc4)cccc3C(=O)N([C@@H](C)CO)C[C@H]2C)cc1
  -29.6	-23.9
COc1ccc(S(=O)(=O)Nc2ccc3c(c2)C(=O)N([C@@H](C)CO)C[C@@H](C)[C@H](CN(C)Cc2ccc4c(c2)OCO4)O3)cc1
  -6.6	-10.6
C[C@@H]1CN([C@@H](C)CO)C(=O)c2cc(NC(=O)CCCCCC(=O)Nc3ccccc3N)ccc2O[C@@H]1CN(C)S(=O)(=O)c1ccccc1
  8.9	3.6
O=C(C[C@H]1C[C@H]2c3cc(NC(=O)Nc4ccccc4)ccc3O[C@H]2[C@@H](CO)O1)NCc1ccccc1
  10.5	11.3
COc1ccc(CN(C)C[C@@H]2Oc3ccc(NC(=O)Cn4cnnn4)cc3C(=O)N([C@@H](C)CO)C[C@@H]2C)cc1
  23.9	13.2
Cc1ccccc1S(=O)(=O)N1C[C@H](O)COC[C@@H]2O[C@H](CC(=O)N3CCCCC3)CC[C@H]21
  10.9	4.4
CC(C)NC(=O)N(C)C[C@@H]1Oc2c(NC(=O)C3CC3)cccc2C(=O)N([C@@H](C)CO)C[C@@H]1C
  20.9	17.1
C[C@@H]1CCCCO[C@@H](CN(C)S(=O)(=O)c2ccc(Cl)cc2)[C@@H](C)CN([C@H](C)CO)C(=O)c2cc(NS(=O)(=O)c3ccccc3)ccc2O1
  8.2	-1.2
C[C@@H]1CN([C@H](C)CO)C(=O)c2cc(-c3ccc(F)cc3)cnc2O[C@@H]1CN(C)C(=O)c1ccc(F)cc1
  -3.1	-2.4
Cc1ccc(S(=O)(=O)Nc2ccc3c(c2)C(=O)N([C@H](C)CO)C[C@@H](C)[C@H](CN(C)S(=O)(=O)c2ccc(F)cc2)O3)cc1
  16.7	15.3
C[C@@H]1CCCCO[C@@H](CN(C)S(C)(=O)=O)[C@H](C)CN([C@H](C)CO)C(=O)c2cc(NS(=O)(=O)c3ccccc3)ccc2O1
  16.5	2.3
CCCN1[C@@H]2c3ccc(-c4ccccc4)c(=O)n3C[C@@H]2[C@@H](CO)[C@@H]1C(=O)NCC(F)(F)F
  -3.4	6.4
O=C(C[C@@H]1C[C@H]2c3cc(NC(=O)c4cccnc4)ccc3O[C@H]2[C@@H](CO)O1)NCc1cc(F)ccc1F
  10.0	10.0
Cc1noc(C)c1S(=O)(=O)Nc1ccc2c(c1)C(=O)N([C@@H](C)CO)C[C@@H](C)[C@@H](CN(C)S(=O)(=O)c1cn(C)cn1)O2
  1.0	0.8
C[C@H](CO)N1C[C@H](C)[C@H](CN(C)Cc2ccncc2)Oc2ncc(C#CC3(O)CCCC3)cc2C1=O
  22.2	9.4
C[C@H]1CN([C@@H](C)CO)C(=O)c2cc(C#CC3(O)CCCC3)cnc2O[C@H]1CN(C)C(=O)C1CCC1
  20.1	9.3
CC(C)NC(=O)Nc1ccc2c(c1)C(=O)N([C@@H](C)CO)C[C@H](C)[C@@H](CN(C)C(=O)c1ccccc1)OCCCC[C@H](C)O2
  9.6	9.3
O=C(C[C@H]1CC[C@H]2[C@@H](COC[C@H](O)CN2CC2CCCC2)O1)NCc1ccc(Cl)cc1
  -4.2	0.2
CCCC#Cc1cnc2c(c1)C(=O)N([C@H](C)CO)C[C@H](C)[C@H](CN(C)C(=O)Nc1c(C)noc1C)O2
  16.7	9.1
O=C(C[C@H]1C=C[C@H](NS(=O)(=O)c2ccccc2)[C@@H](CO)O1)N1CCc2ccccc2C1
  -0.5	-3.3
C[C@H]1CN([C@@H](C)CO)C(=O)c2cc(NC(=O)Nc3ccccc3)ccc2O[C@H]1CN(C)Cc1ccc(C(F)(F)F)cc1
  -13.6	-4.6

Entries listed so far that contain a Cl atom (5):
Second line of a record: Vaccinia inh	Vaccinia inh Venus
COCC(=O)N1C[C@H]2[C@@H](c3ccccc31)[C@H](CO)N2Cc1ccccc1Cl
  -11.2	2.9
C[C@H](CO)N1C[C@H](C)[C@H](CN(C)S(C)(=O)=O)OCCCC[C@H](C)Oc2ccc(NS(=O)(=O)c3ccc(Cl)cc3)cc2C1=O
  -7.5	-9.4
Cc1noc(C)c1NC(=O)Nc1ccc2c(c1)C(=O)N([C@H](C)CO)C[C@@H](C)[C@H](CN(C)S(=O)(=O)c1ccc(Cl)cc1)O2
  3.4	9.9
C[C@@H]1CCCCO[C@@H](CN(C)S(=O)(=O)c2ccc(Cl)cc2)[C@@H](C)CN([C@H](C)CO)C(=O)c2cc(NS(=O)(=O)c3ccccc3)ccc2O1
  8.2	-1.2
O=C(C[C@H]1CC[C@H]2[C@@H](COC[C@H](O)CN2CC2CCCC2)O1)NCc1ccc(Cl)cc1
  -4.2	0.2

Returning to the listing with the two entries that preceded the break.
Second line of a record: Vaccinia inh	Vaccinia inh Venus
O=C(C[C@H]1C=C[C@H](NS(=O)(=O)c2ccccc2)[C@@H](CO)O1)N1CCc2ccccc2C1
  -0.5	-3.3
C[C@H]1CN([C@@H](C)CO)C(=O)c2cc(NC(=O)Nc3ccccc3)ccc2O[C@H]1CN(C)Cc1ccc(C(F)(F)F)cc1
  -13.6	-4.6
COc1ccccc1-c1cn(CC[C@H]2CC[C@@H](NS(=O)(=O)c3ccccc3C)[C@@H](CO)O2)nn1
  -15.7	-5.0
C[C@H](CO)N1C[C@H](C)[C@@H](CN(C)C)Oc2ccc(NC(=O)Cn3cnnn3)cc2CC1=O
  18.2	5.2
Cc1noc(C)c1S(=O)(=O)N(C)C[C@@H]1Oc2ccc(NC(=O)Cn3cnnn3)cc2C(=O)N([C@@H](C)CO)C[C@@H]1C
  15.2	11.7
CC(C)NC(=O)N[C@@H]1CC[C@@H](CCNC(=O)C2CC2)O[C@@H]1CO
  12.1	8.5
Cc1ccc(S(=O)(=O)N(C)C[C@H]2Oc3c(NC(=O)Nc4ccc(C(F)(F)F)cc4)cccc3C(=O)N([C@H](C)CO)C[C@H]2C)cc1
  ?	·
CNC[C@H]1Oc2ccc(NS(=O)(=O)c3cccs3)cc2C(=O)N([C@@H](C)CO)C[C@H]1C
  6.9	-0.7
CO[C@H]1CC[C@H]2CCN(C)C(=O)C[C@@H](c3ccccc3)CN(C)C(=O)c3cccc(C#N)c3OC[C@H]1O2
  10.2	9.1
COc1ccc(NC(=O)N(C)C[C@H]2Oc3c(NC(=O)C4CCCCC4)cccc3C(=O)N([C@@H](C)CO)C[C@@H]2C)cc1
  24.4	2.5
CN(C)CCCNC(=O)C[C@@H]1C=C[C@@H](NC(=O)Cc2cccnc2)[C@H](CO)O1
  6.2	11.0
COCC(=O)N(C)C[C@@H]1Oc2ncc(C#C[C@H](C)O)cc2C(=O)N([C@H](C)CO)C[C@@H]1C
  0.9	-2.8
C[C@@H]1CN([C@@H](C)CO)C(=O)c2cc(NS(=O)(=O)c3ccccc3)ccc2O[C@@H]1CN(C)C(=O)Nc1ccc2c(c1)OCO2
  14.6	7.2
O=C(C[C@@H]1C=C[C@H](NC(=O)Nc2ccc(F)cc2)[C@H](CO)O1)NCCN1CCCC1
  -4.9	0.6
COC(=O)C[C@H]1C[C@H]2c3cc(NC(=O)CC4CC4)ccc3O[C@H]2[C@H](CO)O1
  5.1	-9.7
O=C(NCc1ccccc1Cl)[C@@H]1[C@@H](CO)[C@@H]2Cn3c(cccc3=O)[C@@H]2N1C(=O)C1CCOCC1
  3.9	13.8
Cc1noc(C)c1NC(=O)N(C)C[C@@H]1Oc2c(NC(=O)Nc3ccc(C(F)(F)F)cc3)cccc2C(=O)N([C@@H](C)CO)C[C@H]1C
  0.1	-1.9
CO[C@H]1CN(C)C(=O)c2cc(NC(=O)C3CCC3)ccc2OC[C@@H](C)N(Cc2ccccn2)C[C@@H]1C
  1.3	1.4
C[C@H](CO)N1C[C@H](C)[C@H](CN(C)C(=O)Nc2cccc3ccccc23)Oc2ccc(NC(=O)c3ccncc3)cc2CC1=O
  26.9	23.6
C[C@H]1CCCCO[C@H](CN(C)Cc2ccc(C(=O)O)cc2)[C@@H](C)CN([C@@H](C)CO)C(=O)c2cc(NC(=O)Nc3cccc4ccccc34)ccc2O1
  17.0	9.0
CN1CCN(C(=O)C[C@H]2C[C@H]3c4cc(NC(=O)c5ccc6c(c5)OCO6)ccc4O[C@H]3[C@H](CO)O2)CC1
  -15.3	-6.7
Cc1ccc(S(=O)(=O)Nc2ccc3c(c2)C(=O)N([C@@H](C)CO)C[C@@H](C)[C@@H](CN(C)C(=O)c2ccccc2)OCCCC[C@@H](C)O3)cc1
  -27.9	-26.9

COc1ccc(S(=O)(=O)Nc2cccc3c2O[C@H](CN(C)C(=O)Nc2c(C)noc2C)[C@@H](C)CN([C@@H](C)CO)C3=O)cc1
  Vaccinia inh: 11.9
  Vaccinia inh Venus: 2.5

CCCNC(=O)N1[C@@H]2CN(C)c3ccccc3[C@@H]2[C@@H]1CO
  Vaccinia inh: 11.0
  Vaccinia inh Venus: 10.0

C[C@@H]1CN([C@H](C)CO)C(=O)c2cc(NC(=O)CCN3CCOCC3)ccc2O[C@@H]1CN(C)C(=O)Nc1ccc2c(c1)OCO2
  Vaccinia inh: 27.2
  Vaccinia inh Venus: 19.0

CC(C)NC(=O)N(C)C[C@@H]1Oc2cc(C3=CCCC3)ccc2S(=O)(=O)N([C@H](C)CO)C[C@H]1C
  Vaccinia inh: -7.7
  Vaccinia inh Venus: 2.1

C[C@H](CO)N1C[C@H](C)[C@@H](CN(C)S(C)(=O)=O)Oc2ccc(N(C)C)cc2C1=O
  Vaccinia inh: 14.2
  Vaccinia inh Venus: 5.2

C[C@H](CO)N1C[C@H](C)[C@@H](CN(C)Cc2ccc(Cl)c(Cl)c2)Oc2ccc(NC(=O)Nc3cccc4ccccc34)cc2CC1=O
  Vaccinia inh: -15.7
  Vaccinia inh Venus: -7.9

O=C(Cc1ccccn1)N1CC(=O)N2[C@H](CO)[C@H](c3ccc(C#CC4CCCCC4)cc3)[C@H]2C1
  Vaccinia inh: ?
  Vaccinia inh Venus: ·

C[C@H](CO)N1C[C@H](C)[C@@H](CN(C)C(=O)Nc2ccc3c(c2)OCO3)Oc2c(NS(C)(=O)=O)cccc2C1=O
  Vaccinia inh: 6.2
  Vaccinia inh Venus: 8.4

Cc1ccc(-c2cnc3c(c2)C(=O)N([C@@H](C)CO)C[C@@H](C)[C@H](CN(C)CC2CCCC2)O3)cc1
  Vaccinia inh: 7.9
  Vaccinia inh Venus: 5.6

CN(C)CC(=O)N[C@H]1C=C[C@H](CC(=O)NCCN2CCCCC2)O[C@H]1CO
  Vaccinia inh: -2.8
  Vaccinia inh Venus: 21.0
